Source: PubChem
N370S GC: inhibits or activates N370S mutant glucocerebrosidase; N370S GC spleen homogenate, 4MU-glucoside fluorescence; actives 0.092% (n = 330,000); P04062; Potency, µM (doses to about 59.4 µM), for inactives: top-dose activity change, negative = inhibition, actives largely listed as inhibitors; active means well fitted inhibition curve with a large enough effect; inconclusive means small, poorly fitted or top-dose-only effect, or effect the other way, or another doubt; inactive means no such curve, though single readings can be large or run the other way;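 further: 0% = full enzyme activity and -100% = no enzyme basal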
The depositor's hits bear a star; ? = inconclusive; & = joins results of further samples; [ ] = another dose, or the depositor's remark. Potency means the concentration at half of the fitted maximal effect. These rows are one share of the data, and most or all hits are left out here.

N370S GC,Molecule
12.5%,COc1ccccc1C(=O)Nc1ccc2c3c(cccc13)CC2
12.1%,COc1ccc(/C=N/Nc2nc(-c3cccc(S(=O)(=O)N4CCCC4)c3)cs2)cc1OC
7.7%,O=C(Nc1ccccc1)N1CCCC1c1cccs1 (stereo not given)
11.2%,COc1ccccc1Nc1nnc(Cc2ccccc2)c(=O)[nH]1
-10.9%,Cc1ccccc1C(=O)Nc1nnc(SCC(=O)NC2CC2)s1
?,Cc1ccc(Sc2ncccc2C(=O)NCC(c2ccc(F)cc2)N2CCOCC2)cc1C (stereo not given)
-15.7%,Cc1cc(C)c(NC(=O)CSc2nc3ncc(Cl)cc3[nH]2)c(C)c1
14.6%,COc1ccc(C)cc1NC(=O)NCCC1=CCCCC1
10.5%,CC(C)Nc1nnc(Sc2ccc(Cl)cc2[N+](=O)[O-])s1
-9.7%,COc1cccc(-n2nnc3c(=O)n(CC(=O)Nc4ccccc4C)cnc32)c1
-9.7%,COCCNC(=O)c1ccccc1NS(=O)(=O)c1ccc(Br)s1
-3.9%,Cc1nn(C(C)C(=O)NCCC2=CCCCC2)c(=O)c2nn(-c3ccccc3)c(C)c12 (stereo not given)
-10.1%,S=C(Nc1cc(Cl)cc(Cl)c1)N1CCN(c2ccccn2)CC1
-15.1%,CC(=O)N1CCN(Cc2nc3cc(NC(=O)Nc4ccccc4)ccc3n2C)CC1
-4.0%,Cc1cc(N2CCN(C)CC2)ccc1NC(=O)c1c2c(nc3ccccc13)CCN(Cc1ccccc1)C2
0.4%,Cc1ccc(S(=O)Cc2ccc(C(=O)N3CCN(C4CCCCC4)CC3)o2)cc1 (stereo not given)
16.1%,Cc1ccc(C)c(NC(=O)c2ccc(OC(=O)c3ccco3)cc2)c1
-12.6%,Cc1cc(OC(=O)c2ccccc2Cl)ccc1N1C(=O)CCC1=O
-1.4%,Cc1ccc(N(C(C)C(=O)NCc2ccncc2)S(C)(=O)=O)cc1C (stereo not given)
11.9%,COc1ccccc1C1(CCNS(=O)(=O)c2ccc(C)cc2)CCOC(C(C)C)C1 (stereo not given)
7.4%,Oc1cccc(C=NCc2ccccc2)c1
5.5%,O=C(CSc1nnc(-c2ccccc2Cl)o1)Oc1ccc(Br)cc1
13.7%,COC(=O)C1=C(C)Nc2c(c(=O)n(C)c(=O)n2C)C1c1ccncc1 (stereo not given)
1.8%,Cn1nccc1NC(=O)NC(=O)c1c(Cl)cccc1Cl
-7.2%,N#CC1=C(N)Oc2n[nH]c(-c3cccs3)c2C1c1ccco1 (stereo not given)
-0.8%,Cc1cc(C)c(NC(=O)CSc2nnc(-c3ccccn3)n2N)c(Cl)c1
4.6%,Cc1csc(NC(=O)c2ccc(C)c(S(=O)(=O)N3CCCCC3)c2)n1
3.9%,CCOC(=O)c1ccc(NC(=O)CCC2COc3ccccc3O2)cc1 (stereo not given)
-12.4%,COc1ccc(N(C(=O)Cc2cccs2)C(C(=O)NC2CCCC2)c2ccncc2)cc1OC (stereo not given)
5.8%,CC(O)C(C(=O)OCc1ccc([N+](=O)[O-])cc1)N1C(=O)c2ccccc2C1=O (stereo not given)

Some of these compounds in order of molar mass, ascending:
N370S GC,Molecule
14.6%,COc1ccc(C)cc1NC(=O)NCCC1=CCCCC1
-10.9%,Cc1ccccc1C(=O)Nc1nnc(SCC(=O)NC2CC2)s1
5.8%,CC(O)C(C(=O)OCc1ccc([N+](=O)[O-])cc1)N1C(=O)c2ccccc2C1=O (stereo not given)
-9.7%,COc1cccc(-n2nnc3c(=O)n(CC(=O)Nc4ccccc4C)cnc32)c1
12.1%,COc1ccc(/C=N/Nc2nc(-c3cccc(S(=O)(=O)N4CCCC4)c3)cs2)cc1OC

Carrying on.
N370S GC,Molecule
9.5%,CCc1ccc(NC(=O)N(CCCOC(C)C)C2CCN(C(C)=O)CC2)cc1
4.9%,CCN(CCCNC(=O)C1CCN(S(=O)(=O)CC)CC1)c1cccc(C)c1
-5.6%,Nc1n[nH]c(=S)n1/N=C1/C(=O)Nc2ccccc21
-3.5%,CC(NC(=O)Cc1cccc(C(F)(F)F)c1)c1ccc(F)cc1 (stereo not given)
3.2%,COC(=O)NC1(C(F)(F)F)NC(=O)N(C2CCCCC2)C1=O (stereo not given)
-8.5%&5.5%,CC/C=C\C/C=C\C/C=C\C/C=C\C/C=C\CCCCCC(=O)O
7.6%,CCOC(=O)c1sc(NC(=O)Cc2ccc(C)cc2)nc1C
0.3%,C(=N\n1cnnc1)/c1cccc(Oc2ccccc2)c1
-2.4%,COc1ccc(/C=C/C(=O)Oc2cccc(/C=N/NC(=O)c3cccc(F)c3)c2)cc1
-12.7%,O=C(Nc1ccc(N2CCOCC2)c(Cl)c1)c1ccccc1Cl
-25.0%,COc1ccccc1N1CCN(c2ccc([N+](=O)[O-])nc2)CC1
9.2%,CS(=O)(=O)c1sc(C(=O)NC(=S)Nc2ccc(OC(F)(F)F)cc2)c2c1C=CCC2
4.4%,Cc1cc(C(=O)COC(=O)c2n[nH]c3ccccc23)c(C)n1C
-12.0%,CCCCCCCCC(=O)NCCOc1ccc(OC)cc1
-2.8%,CSc1nnc2ccc(-c3ccc(C)cc3)nn12
-1.0%,CC(=O)N1CC(C)Oc2ccc(S(=O)(=O)NC(CC(=O)O)c3ccccc3C)cc21 (stereo not given)
5.8%,Cc1ccc(-n2cc(CNCCN3CCOC3=O)c(-c3cccc(C)c3)n2)cc1
15.1%,Cc1ccc(C(=O)/C=C/c2ccc(F)cc2)o1
-4.3%,CC(C)(C)CC(C)(C)NC(=O)c1ccccc1
5.6%,CCCCNC(=O)c1cc(C)no1
-5.9%,O=C(CCN1CCCCO1)N1CCCC(Nc2ccc(F)c(F)c2)C1 (stereo not given)
3.1%,Cc1ccc(C)n1-c1ccc(C(=O)N2CCOCC2)cc1
-22.9%,COc1ccc(Cn2c(C)c(C)c(C#N)c2NC(=O)Nc2ccc(F)cc2)cc1
0.0%,COc1ccc(S(=O)(=O)N/N=C(/C)c2ccncc2)cc1
5.6%,Cc1ccc(C)n1NC(=O)c1ccccc1[N+](=O)[O-]
-6.0%,N[C@H](Cn1ccc(=O)c(O)c1)C(=O)O
8.6%,O=C(c1ccco1)N1CCN(C(=O)c2cc(-c3ccccn3)nc3ccc(Cl)cc23)CC1
2.0%,CCc1n[nH]c(=S)n1/N=C/c1cccc2ccccc12
4.7%,CCC(Sc1nncn1C)C(=O)Nc1ccccc1OC (stereo not given)
-19.5%,Cn1c(NCC2CCCO2)nc2c1c(=O)n(Cc1ccccc1)c(=O)n2C (stereo not given)

Brought forward from above: two entries, followed by the next part.
N370S GC,Molecule
4.7%,CCC(Sc1nncn1C)C(=O)Nc1ccccc1OC (stereo not given)
-19.5%,Cn1c(NCC2CCCO2)nc2c1c(=O)n(Cc1ccccc1)c(=O)n2C (stereo not given)
4.6%,CCn1c(COc2ccc(C)cc2)nnc1SCc1ccc(C#N)cc1
-2.8%,CCCOc1ccc(/C=N/NC(=O)CN2CCCCC2)cc1OCC
2.5%,Cc1ccc(-n2c(-c3ccco3)nc3c(cnn3-c3ccccc3C)c2=O)cc1
0.1%,O=C(NC12CC3CC(CC(C3)C1)C2)C1CCCN1C(=O)NC1CCCCC1 (stereo not given)
-10.1%,COc1ccccc1/C=C(\NC(=O)c1ccc(OC)c(OC)c1)C(=O)Nc1cccc([N+](=O)[O-])c1
2.5%,Cc1[nH]c2ccccc2c1C(=O)COC(=O)Cn1c(C)nc2ccccc21
-17.3%,CCCCP(=O)(CCCC)CCP(=O)(c1ccccc1)c1ccccc1
3.2%,CCC1Oc2ccccc2C(=O)N(CC(=O)c2ccc3c(c2)OCCO3)C1=O (stereo not given)
5.0%,COc1ccc(NC(=O)C2CCC(CNS(=O)(=O)c3cccs3)CC2)cc1 (stereo not given)
1.5%,CSc1ncccc1C(=O)Nc1nnc(C2CC2)s1
8.6%,COc1ccc(NC(=O)CN2CCc3ccccc3C2)c([N+](=O)[O-])c1
-0.7%,O=C(O)c1cccc(N2C(=O)C3CC=C(Cl)CC3C2=O)c1 (stereo not given)
-1.4%,O=C1CSC(c2cccnc2)N1Cc1ccc(Cl)cc1 (stereo not given)
-1.5%,O=Nc1onc(-c2ccc([N+](=O)[O-])cc2)c1NO
2.0%,O=C(NCCN1C(=O)S/C(=C/c2ccccc2)C1=O)C1CCCN1C(=O)c1cccs1 (stereo not given)
-0.9%,FC(F)(F)c1nnc2n1N=C(c1cccs1)CS2
-0.3%,Cc1cccc(/C=N/NC(=O)Cn2nccc2C)n1
4.4%,O=C1c2ccccc2C(=O)N1c1n[nH]c(CCc2ccccc2)n1
-5.1%,Cn1c(Cn2nnc(-c3ccccc3)n2)nnc1SCc1ccccc1Cl
-6.0%,S=C(NCCCN1CCOCC1)Nc1ccc(Nc2ccccc2)cc1
-11.2%,CS(=O)(=O)c1nsc2nc(=O)c(/C=C3\C=Nc4ccccc43)c(N)n12
6.3%,Nc1nc(CSC(=S)N2CCN(c3ccccc3)CC2)nc(Nc2ccc(F)cc2)n1
-26.4%,CCOc1ncccc1C(=O)OCC(=O)N1CC(=O)Nc2ccccc21
-23.1%,Cc1ccc(OCCOCCN2CCN(C)CC2)c([N+](=O)[O-])c1
-4.3%,CCOc1ccc2nc(COC(=O)c3ccncc3)c(C(=O)c3ccccc3)[n+]([O-])c2c1
12.5%,COc1ccc(-n2c(C)cc(/C=N/Nc3nc(N4CCOCC4)nc(N4CCOCC4)n3)c2C)cc1
13.0%,CCOC(=O)Cn1c(=NC(=O)c2cccs2)sc2cc(C(=O)OC)ccc21
-1.4%,CC1(C)CC2CC(C)(CN2CC(=O)C(C#N)c2ccccc2)C1 (stereo not given)
0.6%,CCN(CCn1cccn1)C(=O)C1CCC(=O)N(CCN2CCOCC2)C1 (stereo not given)
-3.4%,NNC(=O)Cn1cnc2ccccc21

Following part:
N370S GC,Molecule
1.3%,COc1ccc(O)c(C2NC(CC(C)C)(C(=O)O)C3C(=O)N(Cc4ccccc4)C(=O)C23)c1 (stereo not given)
3.8%,CC(=O)COC(=O)c1cccc(N2C(=O)C3C4C=CC(C4)C3C2=O)c1 (stereo not given)
-2.4%,CC(NC(=O)c1ccc2c(c1)OCCO2)c1ccc(S(N)(=O)=O)cc1 (stereo not given)
1.6%,CN(CCOC(=O)c1ccccc1)Cc1ccccc1
-11.6%,N#CCSc1ncnc2ccccc12
3.2%,O=S(=O)([N-]c1nc2ccccc2nc1-[n+]1ccc(CCCc2ccccc2)cc1)c1cccs1
-9.7%,CN(C)S(=O)(=O)c1cc(NC(=O)c2ccc(-n3ccnc3)c([N+](=O)[O-])c2)ccc1Cl
-2.2%,Cn1ccnc1Sc1cc(Cl)ccc1[N+](=O)[O-]
-6.3%,CC(C)N(CCCNC(=O)c1ccc(CS(=O)(=O)c2c(Cl)cccc2Cl)o1)Cc1ccccc1
5.2%,CCCN(CCC)S(=O)(=O)c1ccc(NS(=O)(=O)c2ccc(F)cc2)cc1
-2.4%[2.35 µM],COC(=O)c1c(NC(=O)c2cccs2)sc2c1CCCC2
6.2%,O=C(C1CCN(S(=O)(=O)c2cccs2)CC1)N1CCN(c2ccccc2)CC1
-5.7%,Cc1ccc(N2CC(C(=O)Nc3ccncc3)CC2=O)cc1 (stereo not given)
-0.9%,CCC(=O)N(Cc1cc2ccccc2[nH]c1=O)c1ccc(OC)cc1
-6.3%,Cc1nn(CCCC(=O)Nc2ccccn2)c(C)c1[N+](=O)[O-]
-23.5%,COc1ccc(CNC(=O)C2CCN(S(=O)(=O)N3CCCCC3)CC2)c(OC)c1
-1.4%,CC1(C)C2CC=C(/C=N/NC(=S)Nc3cccnc3)C1C2 (stereo not given)
-6.0%,O=C(/C=C/Nc1ccc(F)c(Cl)c1)c1ccccc1
-2.8%,O=C1CN(C(=O)COc2ccccc2)c2ccccc2N1
-0.2%,CC(=O)c1cccc(NC(=O)N2CCCC2C(=O)NCc2ccccc2)c1 (stereo not given)
-2.3%,O=C(O)CC(NS(=O)(=O)c1c(F)cc(F)cc1Br)c1ccccc1Cl (stereo not given)
0.0%,O=C1c2ccccc2C(O)(Cc2ccccc2)N1CCCN1CCOCC1 (stereo not given)
0.2%,COc1ccc(NC(=O)c2ccco2)cc1NC(=O)c1ccc(Br)o1
-3.1%,O=C(NC1C(=O)NNC1c1ccc(Cl)cc1)c1ccc(F)cc1 (stereo not given)
4.8%,CCOC(=O)C1=C(C)Nc2nnnn2C1c1ccccc1Cl (stereo not given)
-0.8%,O=C(NN1C(=O)C2C(c3ccccc3)C=CC(c3ccccc3)C2C1=O)c1cccc(Br)c1 (stereo not given)
8.3%,O=C(Cn1nnc(-c2ccccc2Cl)n1)N/N=C/c1ccc(-c2cccc(Cl)c2)o1
-10.5%,COC(=O)c1ccc(OC(=O)c2cnccn2)cc1
4.9%,CC(C)Cn1c(=O)c(C(=O)Nc2ccccc2S(N)(=O)=O)c(O)c2ccccc21
-3.2%,CN(C(=O)CSc1nnc(COc2ccccc2F)n1N)C1CCS(=O)(=O)C1 (stereo not given)

Of the compounds above, these have a CF3 group.
N370S GC,Molecule
-3.5%,CC(NC(=O)Cc1cccc(C(F)(F)F)c1)c1ccc(F)cc1 (stereo not given)
3.2%,COC(=O)NC1(C(F)(F)F)NC(=O)N(C2CCCCC2)C1=O (stereo not given)
9.2%,CS(=O)(=O)c1sc(C(=O)NC(=S)Nc2ccc(OC(F)(F)F)cc2)c2c1C=CCC2
-0.9%,FC(F)(F)c1nnc2n1N=C(c1cccs1)CS2

The list goes on.
N370S GC,Molecule
-3.4%,CCN(C(=O)c1ccc(Br)cc1)c1ccccc1
7.0%,Cc1cc(C)c(NC(=S)N(CCc2ccncc2)C(C)C)c(C)c1
1.0%,CCC(c1nnnn1CCc1ccccc1)N1CCN(C(=O)c2ccco2)CC1 (stereo not given)
3.8%,Cc1nn(Cc2ccc(Cl)c(Cl)c2)c(C)c1NC(=O)c1cc(-c2ccco2)on1
24.4%,Cc1nn(Cc2ccccc2)c(Cl)c1C(=O)NCc1ccco1
-3.8%,COc1cccc2cc(-c3n[nH]c(=S)n3C)oc12
7.7%,Cc1c(NC(=O)CSc2nncc3ccccc23)c(=O)n(-c2ccccc2)n1C
0.5%,Cc1c(Br)cc(C(=O)NCCCN2CCOCC2)c(C)c1C
